Bioassay records from PubChem BioAssay.
Lassa entry inh: blocks Lassa virus binding to or entry into cells | Lassa virus pseudotype entry inhibition, cell reporter; control for the full effect not named in the record | Potency, µM (doses to about 37.9 µM), inactives show top-dose activity change, negative = inhibition, most hits filed as inhibitors | 300,000 compounds, 1.2% hits | AID 540256; active means well fitted inhibition curve with a large enough effect; inconclusive means small, poorly fitted or top-dose-only effect, or effect the other way; inactive means flat fitted curve, though single readings scatter; tested in HEK293 cells; note: % is set by controls: 0 for no effect and ±100 for the full control effect; nearly all actives have a fitted effect of over 50% in size; luciferase read-out
Marburg entry inh: Marburg virus entry inhibition. Marburg virus pseudotyped entry inhibition, cell reporter; control for the full effect not named in the record; about a third of the inactives were read at about 46 µM. Potency, µM (highest dose often 37.8 µM), inactives show top-dose activity change, negative = inhibition, usual class: inhibitors. 300,000 compounds, 1.8% hits. AID 540276; active = well fitted inhibition curve with a large enough effect; inconclusive = small, poorly fitted or top-dose-only effect, or effect the other way; inactive = flat fitted curve, though single readings scatter; tested in HEK293 cells; about a fifth of its hits are not listed in these tables; note: % is set by controls: 0 for no effect and ±100 for the full control effect; luciferase read-out
RE007 growth inh: less growth of the S. pombe RE007 Vpr strain | 360,000 compounds, 0.21% hits | AID 651644 | Potency, µM (top dose mostly 92.2 µM), inactives show at the highest dose activity change, negative = less growth | S. pombe RE007 Vpr strain, BacTiter-Glo ATP luminescence, 24 h; control for the full effect not named in the record; active = well fitted falling curve with a large enough effect; inconclusive = small, poorly fitted or top-dose-only effect; inactive = no such curve, though single readings can be large or run the other way;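 note: % is set by controls: 0 for no effect and ±100 for the full control effect; nearly all actives have a fitted effect of over 50% in size; the assay follows cell death caused by Vpr and the record does not say whether a fall means rescue or toxicity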
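Fission yeast RE007 carrying one integrated HIV-1 vpr copy, seeded at OD 0.01 in PMG+AL medium with 23 nL pinned compound. Grown 24 h at 30 degrees; viability read by BacTiter-Glo luminescence after 5 min.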
NS1 inh: influenza NS1 inhibition; S. cerevisiae slowed by influenza A NS1, growth recovery by OD600; Potency, µM (top dose mostly 46.1 µM), for inactives: at the highest dose activity, positive = more growth; 270,000 compounds, 0.4% hits; note: actives are rising curves; nearly all actives have a fitted effect of over 50% in size
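Read-out: OD600 growth recovery of NS1-expressing budding yeast. Cells grown overnight at 30C in -URA glucose medium, washed, resuspended and diluted 1:100 in 2% galactose assay medium, pH 6.0. Same strain lacking NS1 served as positive control.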
Cruzain inh noDet: cruzain (T. cruzi) inhibition without detergent; purified cruzain, Z-FR-AMC fluorescence, no detergent; Potency, µM, for the others: max response, negative = inhibition, most hits filed as inhibitors; 200,000 compounds, 2.3% hits; active = well fitted curve in the direction sought with a large enough effect; inconclusive = small, poorly fitted or top-dose-only effect, or another doubt; inactive = no such curve, though single readings can be large; an effect the other way counts as inactive or inconclusive;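 note: plate controls were enzyme without inhibitor for no effect and buffer without enzyme for full effect; nearly all actives have a fitted effect of over 40% in size; top concentration of the series not given in the record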
Target sequence (P25779 123-467 limits assumed): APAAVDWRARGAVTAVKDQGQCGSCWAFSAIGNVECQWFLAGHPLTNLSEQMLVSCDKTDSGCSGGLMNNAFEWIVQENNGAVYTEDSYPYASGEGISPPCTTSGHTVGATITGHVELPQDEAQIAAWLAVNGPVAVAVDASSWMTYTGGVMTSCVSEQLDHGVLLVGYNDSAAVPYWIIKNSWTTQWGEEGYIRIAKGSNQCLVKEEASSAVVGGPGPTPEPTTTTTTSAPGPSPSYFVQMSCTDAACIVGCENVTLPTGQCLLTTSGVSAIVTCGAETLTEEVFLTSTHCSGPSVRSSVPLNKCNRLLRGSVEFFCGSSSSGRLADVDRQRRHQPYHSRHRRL
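Purified cruzain at 1.5 nM, pre-incubated 15 min with compound at room temperature in 100 mM sodium acetate pH 5.5, 5 mM DTT, 0.00005% Triton X-100. Reaction started with 2 uM Z-FR-AMC; AMC fluorescence increase over 60 s gives rate.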
2A StopGo: FMDV 2A StopGo reporter, luciferase signal; human cells with a luciferase reporter of 2A StopGo recoding; control for the full effect not named in the record; Potency, µM (highest dose often 57.9 µM), inactives show at the top dose signal change, negative = less light; 410,000 compounds, 1.2% hits; AID 1159524; active = well fitted falling curve with a large enough effect; inconclusive = small, poorly fitted or top-dose-only effect; inactive = no such curve, though single readings can be large or run the other way; tested in HEK293T cells; note: % is set by controls: 0 for no effect and ±100 for the full control effect; nearly all actives have a fitted effect of over 45% in size; luciferase light after 4 h
Cruzain inh Det: cruzain (T. cruzi) inhibition with detergent. 200,000 compounds, 0.43% hits. P25779. Potency, µM, inactives show max response, negative = inhibition, usual class: inhibitors. purified cruzain, Z-FR-AMC fluorescence, 0.01% Triton; active = well fitted curve in the direction sought with a large enough effect; inconclusive = small, poorly fitted or top-dose-only effect, or another doubt; inactive = no such curve, though single readings can be large; an effect the other way counts as inactive or inconclusive;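 note: plate controls were neutral wells for no effect and buffer without enzyme for full effect; nearly all actives have a fitted effect of over 40% in size; top concentration of the series not given in the record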
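Sodium acetate buffer (100 mM, pH 5.5) containing 5 mM DTT and 0.01% Triton X-100 hosted 1.5 nM cruzain and test compound for 15 min at room temperature. Cleavage of 2 uM Z-FR-AMC was then tracked by fluorescence.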
SARS PLP yeast: blocks SARS-CoV papain-like protease in a yeast assay | S. cerevisiae expressing SARS-CoV PLpro, growth rescue; control for the full effect not named in the record | Potency, µM (doses to about 32.9 µM), inactives show at the highest dose activity, positive = growth rescue | 330,000 compounds, 0.19% hits | AID 485353; note: 0% is about no effect; nearly all actives have a fitted effect of over 55% in size; growth read by luminescence after 48 h
Numbers without * were called inactive; ? = inconclusive; . = no result given; & = joins results of further samples; [ ] = another dose, or the depositor's remark. Unless noted, calls come from the whole dose curve; as a rule, active means well fitted rising curve with a large enough effect; inconclusive means small, poorly fitted or top-dose-only effect; inactive means no such curve, though single readings can be large or run the other way. Potency is the fitted concentration of half-maximal effect.

SMILES	Lassa entry inh	Marburg entry inh	RE007 growth inh	NS1 inh	Cruzain inh noDet	2A StopGo	Cruzain inh Det	SARS PLP yeast
C/C(CC(=O)Nc1ccc2c(c1)OCCO2)=N\NC(=O)c1ccccc1F	1%	?	2%	-6%	.	15%	.	-6%
COc1ccc(C(=O)Oc2cc3c4c(c2)C(C)=CC(C)(C)N4C(=O)C3=O)cc1OC	12%	?	-11%	?	?	?	3.5%	-20%
Cc1[nH]c2ccccc2c1C(=O)CSc1nccc(=O)[nH]1	.	.	-7%	-2%	.	0%	.	1%
Cc1c(Cl)cccc1NC(=O)CNC(=O)c1ccco1	.	.	-5%	1%	.	-7%	.	-8%
Cc1ccc(NC(=O)N(CCC#N)Cc2ccccc2)cc1	.	.	22%	-4%	.	22%	.	1%
COCC(=O)N1CCC(Oc2ccc(C(=O)NCCc3ncccc3C)cc2)CC1	12%[46.1 µM]	23%[46.1 µM]	1%	4%	.	9%	.	17%
Fc1ccc(Cn2cc(C(=S)N3CCOCC3)c3ccccc32)cc1	.	.	2%	12%	.	-14%	.	-3%
CCc1nnc2c(N3CCN(c4cc(Cl)ccc4C)CC3)nc3ccccc3n12	12%[46.1 µM]	.	.	.	-11%	2%	-2.7%	.
Cc1ccccc1C(=O)N1CC1C (stereo not given)	-3%	-18%	2%	.	.	-11%	.	.
COc1ccc(-c2c(NC(=O)c3ccco3)oc3ccc(Cl)cc3c2=O)cc1	21%[46.1 µM]	14%[46.1 µM]	-2%	-16%	.	-1%	.	2%
O=C1CS(=O)(=O)C2(C(=O)N(Cc3ccc(F)cc3)c3ccccc32)N1c1cccc(C(F)(F)F)c1 (stereo not given)	4%[46.1 µM]	.	.	.	.	-1%	-6.7%	.
CN(C)C(=O)COC(=O)c1cccc(S(=O)(=O)Nc2ccc(OCc3ccccc3)cc2)c1	-14%	0%	11%	.	.	13%	.	.
O=c1[nH]c(NCCCO)nc2c1C1(CCCC1)Cc1ccccc1-2	-16%	8%	14%	-44%	?	.	-12%	1%
CCOc1ccccc1NC(=O)N1CCC2(CC1)Oc1ccccc1C(=O)N2Cc1ccccc1F	.	?	.	.	-4%	-25%	-12%	.
Cc1cccc(N2C(=O)N3[C@H](c4ccc(F)cc4)[C@@H]4C(=O)N(C5CCCCC5)C(=O)[C@@H]4[C@]3(Cc3ccc(Cl)cc3)C2=O)c1	.	.	-9%	?	.	-4%	.	8%
COc1cc(N)c(Cl)cc1C(=O)OCCN1CCCCC1	?	-14%&21%&21%&21%	.	5%	6%	.	-5.7%	.
Fc1ccc(NC(=S)NCCc2ccccn2)cc1	11%	5%[46.1 µM]	-4%	2%	.	92%[activator]	.	-1%
O=C(Nc1ncn[nH]1)c1ccc(Cl)c(Cl)c1	2%	?	5%	.	.	-7%	.	-1%
O=C(O)c1ccccc1NC(=O)c1cc(-c2ccccc2)nc2ccccc12	?	?	3%	-12%	.	?	.	-6%
O=C(NC1CCCC1)C(c1ccncc1)N(C(=O)c1csnn1)c1ccccc1F (stereo not given)	3%	0%[46.1 µM]	-5%	-5%	.	6%	.	1%
COc1ccccc1CN1CCCC(C(=O)c2ccccc2SC)C1 (stereo not given)	?	10µM*	-7%	1%	.	-21%	.	1%
O=C(C1CCCCC1)N1CCN(S(=O)(=O)c2ccc(Cl)cc2)CC1	-26%	8%	-1%	-18%	1%	?	0.6%	10%
Cc1nn(C)cc1CNC(=O)C1CCC(=O)N(CC2CCCCC2)C1 (stereo not given)	-14%	3%	-2%	1%	.	-12%	.	-5%
O=C(NCCc1ccccc1Cl)C1CCC(=O)N(CCCc2ccccc2)C1 (stereo not given)	.	.	4%	-3%	.	-15%	.	1%
CCCOC(=O)c1c(N)n(Cc2cccs2)c2nc3ccccc3nc12	17%	?	-6%	3%	-5%	?	5.1%	-10%
CC(C)(C)c1csc(NC(=O)c2ccncc2)n1	?	?	-27%	.	.	?	.	-1%
C/C(=N\OC(=O)C1CC1)C1CC1c1ccc(F)cc1 (stereo not given)	?	3%[46.1 µM]	13%	.	.	-11%	.	-6%
Brc1ccc(COn2ccnc2)cc1	-2%	3%	0%	6%	.	-15%	.	-2%
O=C(CNC(=O)N1CC(=O)Nc2ccccc21)Nc1ccccc1F	.	.	0%	-1%	.	20%	.	4%
O=C(CCOc1ccccc1F)N1CCN(c2ccccc2O)CC1	-10%[46.1 µM]	?	16%	.	.	1%	.	-4%
COc1ccc(CCn2c(=N)c(C(=O)NCCN3CCOCC3)cc3c(=O)n4ccccc4nc32)cc1OC	2%[46.1 µM]	?	2%	1%	.	2%	.	-1%
Cn1c(=O)c([N+](=O)[O-])c(-n2cnc3ccccc32)c2ccccc21	7%[46.1 µM]	?	0%	0%	.	?	.	0%
O=C(Nc1cccnc1)c1ccc(Cl)c(S(=O)(=O)N2CCCCCC2)c1	-25%	?	-2%	-49%	-6%	?	-5.5%	-13%
O=C(N/N=C/c1ccccc1Cl)c1ccncc1	.	.	-5%	-20%	.	34%[activator]	.	-3%
Cc1ccc(CCC(=O)Nc2cc(Cl)ccc2Cl)o1	21%[46.1 µM]	6%[46.1 µM]	1%	-13%	.	4%	.	-6%
Cc1cc(=O)[nH]c(N/N=C/c2ccco2)n1	6%	0%	?	-2%	3%	15%	-4.5%	1%
CC1(C)Cc2c(c(N3CCOCC3)nc3snc(N)c23)CO1	-13%	-23%&-23%	3%	-131%	?	?	-11%	4%
Cc1cc(C)nc(SCCn2c(N(C)Cc3ccccc3)nc3c2c(=O)n(C)c(=O)n3C)n1	-10%	4%	18%	-14%	13%	3%	4.5%	0%
Cc1nn(C(C)C(=O)NCCCN2CCCCCC2)c(=O)c2cc3sccc3n12 (stereo not given)	.	.	-10%	16%	.	-12%	.	-2%
CCC(=O)/C=C1/Sc2ccccc2N1CC	-3%	18%	-24%	-6%	-22%	-24%	-12%	-28%
COc1ccc(-n2c(SC)nc(O)c(Cc3ccccc3)c2=O)cc1	11%	4%	10%	1%	-5%	9%	-6.4%	8%
C/C(=N/NC(=O)c1cc2ccccc2cc1O)c1ccco1	.	.	-10%	0%	.	14%	.	2%
Cc1ccccc1CN1CCCOCCS1(=O)=O	.	.	-4%	4%	.	-3%	.	0%
Cc1cc(S(=O)(=O)N2CCCC(N(C)CCc3ccccn3)C2)c(C)cc1Cl (stereo not given)	.	.	-12%	2%	.	?	.	3%
COc1ccc2cnn(-c3ccc(C)cc3)c(=O)c2c1OC	2%	0%	-4%	-120%	-6%	25%	1.2%	17%
Cn1nc(-c2ccc(C(=O)O)cc2)c2ccccc2c1=O	2%	-2%	17%[3.69 µM]	-4%	-3%	-8%	4.1%	-2%
Cc1ccc2cc(CCNC(=O)c3ccc(S(=O)(=O)N4CCOCC4)cc3)c(=O)[nH]c2c1C	0%	-12%	0%	8%	.	?	.	-5%
CCOc1cc(NC(=O)c2ccccc2[N+](=O)[O-])c(OCC)cc1NC(=O)CC(C)C	-2%	-25%	6%	1%	-3%	9%	2.6%	4%
Cc1ccc(CN(Cc2ccco2)C(=O)c2oc3cc(Br)ccc3c2C)cc1	-20%[46.1 µM]	-12%[46.1 µM]	.	.	?	-6%	-4.9%	.
CC(C)OC(=O)CSc1nnc(CNc2ccc(Cl)cc2)n1C	2%[46.1 µM]	13%[46.1 µM]	-15%	-1%	.	-19%	.	0%
CCc1cccc(NC(=O)CCc2c(C)nn(-c3ccc(N4CCCCC4)nn3)c2C)c1	.	.	-2%	-19%	.	14%	.	-44%
CN(CC(=O)Nc1ccc(F)cc1)C(=O)COc1ccc(C(=O)c2ccccc2)cc1	?	18%	-9%	-7%	9%	-17%	-4.3%	22%
COc1cc(C2NC(=O)NC(C)=C2C(=O)OC2CCCC(C)C2)cc(Br)c1O (stereo not given)	.	.	1%	7%	.	-18%	.	1%
CC(CCc1ccccc1)NC(=O)c1ccccc1 (stereo not given)	16%	18%	-14%	?	10%	-7%	1.1%	-3%
CC(=O)c1c(COC(=O)c2ccncc2)nc2ccccc2[n+]1[O-]	15%	2%	7%	?	-6%	-2%	-2.9%	?
COc1ccc2c(CNCCc3cccs3)c(C(=O)O)n(Cc3ccc(F)cc3Cl)c2c1	?	.	.	.	1%	?	-7.8%	.
Cc1cc(NC(=O)COc2coc(CN3CCN(c4ccccc4F)CC3)cc2=O)no1	-10%	-1%[46.1 µM]	-7%	.	.	-16%	.	0%
Nc1ccc(C(=O)N/N=C/c2ccccc2)cc1	24%	?	4%	8%	-18%	42%[activator]	-2.2%	-7%
COc1ccc(CCNC(=O)COc2ncnc3cc([N+](=O)[O-])ccc23)cc1	.	.	9%	10%	-7%	26%	-1.9%	16%
Cc1ccccc1OCC(=O)Nc1ccc(Cc2ccncc2)cc1	?	?	2%	-30%	11%	-9%	-7.9%	-29%
Next section
SMILES	Lassa entry inh	Marburg entry inh	RE007 growth inh	NS1 inh	Cruzain inh noDet	2A StopGo	Cruzain inh Det	SARS PLP yeast
COc1ccc(NC(=O)CCCSc2ccccc2)cc1	-9%[46.1 µM]	6%[46.1 µM]	-9%	6%	.	42%[activator]	.	-4%
N#Cc1ccc(CSc2nnc(COc3ccccc3)n2-c2ccccc2)cc1	-12%	-22%	-10%	-53%	4%	?	-5.6%	2%
Cc1cccc(-c2cnn(-c3cccc([N+](=O)[O-])c3)c2N)c1	10%	-9%[46.1 µM]	-23%	-2%	.	23%	.	-7%
O=C(COC(=O)CN1CCSC1=O)Nc1ccc(F)cc1Cl	2%	?	-6%	.	.	-24%	.	4%
Cn1c(=O)c2c(nc(NCCCO)n2Cc2cccc(Br)c2)n(C)c1=O	-15%	-15%&-15%	3%	2%	4%	?	-5.8%	5%
Cc1ccc(Nc2c(-c3ccccc3)nc3cnccn23)cc1	?	?	9%	.	.	-2%	.	-2%
CC1(C)Cc2c(sc3nc(SCC(=O)O)[nH]c(=O)c23)CO1	-3%	9%	2%	-2%	-4%	12%	-0.5%	0%
